Screening results deposited in PubChem by National Center for Advancing Translational Sciences (NCATS).
VACV mCherry inh: inhibitors of vaccinia virus infection (mCherry reporter signal). Vaccinia virus mCherry reporter infection, fluorescence; about a quarter of the inactives have no number. Potency, µM (highest dose often 36.5 µM), for the others: at the top dose activity change, negative = inhibition, hits mostly inhibitors. 310,000 tested, 0.63% active; active = well fitted inhibition curve with a large enough effect; inconclusive = small, poorly fitted or top-dose-only effect; inactive = no such curve, though single readings can be large or run the other way; tested in A549 cells; note: nearly all actives have a fitted effect of over 35% in size; inactives centre near -10
Vaccinia Venus: inhibitors of vaccinia virus (Venus reporter); Vaccinia virus Venus reporter expression, fluorescence; Potency, µM (top dose mostly 36.5 µM), inactives show at the top dose activity change, negative = inhibition, hits mostly inhibitors; 330,000 tested, 0.46% active; active means well fitted inhibition curve with a large enough effect; inconclusive means small, poorly fitted or top-dose-only effect; inactive means no such curve, though single readings can be large or run the other way; tested in A549 cells; note: nearly all actives have a fitted effect of over 30% in size; inactives centre near -10
Numbers without * were called inactive; i = inactive; u = inconclusive; x = no result given; & = joins results of further samples; [ ] = dose if it differs, or a comment. % is set by controls: 0 for no effect and ±100 for the full control effect; potency is the fitted concentration of half-maximal effect.

SMILES	VACV mCherry inh	Vaccinia Venus
CN(C(=O)CSc1nnc(C(F)(F)F)n1C)c1c(N)n(Cc2ccccc2)c(=O)[nH]c1=O	i	-1%
CCCN1Cc2cccc(C(=O)NCCc3ccccc3)c2C1=O	-11%	1%
CCCOc1ccc(/C=c2\sc3ncnn3c2=O)cc1	-4%	5%
CC(C)CC[n+]1ccn(-c2nc3ccccc3nc2[N-]S(=O)(=O)c2ccc(Cl)cc2)c1	-4%[7.34 µM]	-7%[7.34 µM]
COc1ccc(N2Cc3ccccc3C2)cc1Cl	-15%	-22%
C=CCNC(=O)c1onc(CSc2ccc(F)c(F)c2)c1C(=O)O	i	-6%
CC(CCn1cccn1)NC(=O)CCc1nnc(C2CCCCC2)o1 (stereo not drawn)	i	-3%
O=C(Cn1nnc(-c2cccs2)n1)Nc1ccccc1C(F)(F)F	-15%	-13%
Cc1ccc(OCCC(=O)OCC(=O)NCCNC(=O)COC(=O)CCOc2ccc(C)cc2)cc1	-19%	1%
CCOC(=O)c1ccc(NS(=O)(=O)c2c(C)n(C)c(=O)n(C)c2=O)cc1	i	-21%
COC(=O)Cc1c(-c2[nH]c3ccccc3c2CC(=O)OC)[nH]c2ccccc12	1%	15%
Cc1ccc(N2C(=O)CC3(CC4C=CC3C4)C2=O)cc1 (stereo not drawn)	x	-24%
COc1cc2c(cc1NC(=O)CC1SC(N3CCCC3)=NC1=O)oc1ccccc12 (stereo not drawn)	u	u
O=C(Nc1ccc(F)cc1)Nc1cc(OCC(F)(F)F)cc(OCC(F)(F)F)c1	10µM*	u
CC(C)C(=O)N1CCN(c2ccccc2NC(=O)COc2ccccc2)CC1	i	-13%
CC1CCc2nn(CC(=O)Nc3c(F)cc(F)cc3Br)cc2C1 (stereo not drawn)	-9%	-5%
O=C(Nc1ccccc1)C1CCN(S(=O)(=O)c2ccc3[nH]c4c(c3c2)CCCCC4)CC1	-24%	-22%
NC1=NC[C@@H](Cc2ccc(O)cc2)N1CCc1cccc(F)c1	-2%	-13%
COC(=O)Cc1cn(-c2ncc(C(F)(F)F)cc2Cl)c2ccccc12	x	5%
CCOc1ccc(NC(=O)CSc2nnc3scc(-c4ccc(Cl)cc4)n23)cc1	-10%	7%
O=C(ONC1=NCCCCC1)c1c(F)cccc1F	-27%	-17%
CC(C)Oc1ccc(CNS(=O)(=O)c2ccc(-c3cc(C(F)(F)F)on3)s2)cc1	-10%	-2%
Cc1ccc2nc(-c3ccc(NS(=O)(=O)c4ccc(F)c(F)c4)cc3)sc2c1	u	u
CCOC(=O)Cn1c(=O)c2c(nc(N3CCOCC3)n2Cc2ccccc2)n(C)c1=O	-19%	-9%
CCN(CC)S(=O)(=O)c1cccc(C(=O)N/N=C/c2ccc(OC)c(O)c2)c1	i	-11%
Cc1ccc(NC(=O)c2cccs2)cc1NC(=O)c1ccc(F)cc1	3%	4%
Cc1ccc(NC2CCCN(C(=O)CN3C(=O)CSC3=O)C2)cc1C (stereo not drawn)	i	-7%
O=C(Nn1cnc2ccccc2c1=O)C1CCCCC1	i	-19%
Cc1ccc(C)c(S(=O)(=O)N2CCN(C(=O)c3cc(-c4cccs4)nn3-c3ccccc3)CC2)c1	i	-13%
Cc1ccc2oc(=O)c(-c3nc4ccc(C)cc4[nH]3)cc2c1	u	u
CC1(C(=O)NCC2CC2)Cc2c(-c3cccc(C(N)=O)c3)ccnc2O1 (stereo not drawn)	i	-13%
CC(C)N(C(=O)[C@H]1C[C@H](CC(=O)NCCCn2ccnc2)C(=O)N2CCc3c([nH]c4ccc(Cl)cc34)[C@]12C)C(C)C	-13%	0%
COc1ccc(CCNC(=O)CSc2nnnn2C)cc1OC	-12%	-10%
Clc1cccc(N2CCN(c3nc4ccccc4c4nc(-c5ccccc5)nn34)CC2)c1	-11%	4%
Cc1[nH]c2ccccc2c1/C=N/NC(=O)CCC(=O)NCc1ccccc1	-37%	0%
CCOc1ccc(CCNC(=O)CCn2cccc2)cc1OCC	x	-15%
CCCCCCCCCCN(CCCCCCCCCC)c1ccccc1	-16%	-7%
COc1ccc(C(=O)Nc2ccccc2N2CCCC2)cc1S(=O)(=O)N1CCOCC1	i	-14%
C=CCN1C(=O)C(CC(=O)Nc2ccc(OCCC)cc2)N(CCCN2CCN(Cc3ccccc3)CC2)C1=S (stereo not drawn)	u	11µM*
Clc1cccc(-c2cccc3nccn23)c1	-1%	-2%
Cc1c(C)c2c(c(C)c1O)CCC(C)(COc1ccc(CC3SC(=O)NC3=O)cc1)O2 (stereo not drawn)	-13%	-7%
CCc1ccc(C(c2ccccc2)c2c[nH]c3ccc(C)cc23)s1 (stereo not drawn)	-3%[7.34 µM]	-8%[7.34 µM]
CN1CCN(S(=O)(=O)c2ccc(=O)[nH]c2)CC1	i	-6%
O=C(CCl)N(c1ccccc1)c1c[nH]c2ccccc12	u	u
O=C(COc1cc(Cl)c(Cl)cc1Cl)Nn1cnnc1	1%	-4%
CCOC(=O)/C(CCC[N+](C)(CC)CC)=N\O	-9%	-13%
Cc1cc(SCC(=O)Nc2cccc(S(=O)(=O)N3CCOCC3)c2)nc2ccccc12	-22%	-29%
O=C(c1ccc(F)cc1Cl)N(c1ccccn1)C1CCCCC1	i	-1%
COC(=O)c1ccc(Cn2cc(C(F)(F)F)cc([N+](=O)[O-])c2=O)cc1	u	7%
CC(=O)N(C)/C=C1\Sc2ccccc2C1=O	x	2%
Cc1ccc2nc(/C(C#N)=C/c3ccccc3C(=O)O)[nH]c2c1	i	1%
Cc1cc(CN2CCC(n3nccc3NC(=O)c3ccccc3C)CC2)n[nH]1	i	-13%
c1ccc(CNc2nc3ccccc3n3cnnc23)cc1	i	-17%
CC1CCc2c(sc3nnn(CC(=O)Nc4ccc(Cl)cc4)c(=O)c23)C1 (stereo not drawn)	7%	-8%
O=C1NC2C(=CC(O)C(O)C2O)c2cc3c(c(O)c21)OCO3 (stereo not drawn)	8.9µM*	0.1µM*
CS/C(=N\S(=O)(=O)c1ccccc1)c1ccccc1	-22%	-3%
Cc1ccc2oc(=O)c(/C=C(\O)c3cccs3)nc2c1	-17%	-17%
COc1ccc2nc(N(Cc3cccnc3)C(=O)Cc3ccccc3)sc2c1	i	-7%
COc1ccccc1-c1noc2ncnc(Nc3ccc4c(c3)OCO4)c12	i	-4%
COc1ccc(C=C(c2nc3ccccc3s2)c2nc3ccccc3s2)cc1O	i	-21%

Single records, from the list above:
Record of COc1ccc2nc(N(Cc3cccnc3)C(=O)Cc3ccccc3)sc2c1 = VACV mCherry inh = i; Vaccinia Venus = -7%
Record of COc1ccc(N2Cc3ccccc3C2)cc1Cl = VACV mCherry inh = -15%; Vaccinia Venus = -22%
Record of CCOC(=O)c1ccc(NS(=O)(=O)c2c(C)n(C)c(=O)n(C)c2=O)cc1 = VACV mCherry inh = i; Vaccinia Venus = -21%

Next part
SMILES	VACV mCherry inh	Vaccinia Venus
COC(=O)[C@]12CCCCC=C1N(CCC1=CCCCC1)C(=O)[C@H](CC(=O)NCC1CCCCC1)C2	-7%	-9%
CC1(C)OCC(CNC(=O)c2[nH]c(C(F)(F)F)nc2-c2ccccc2)O1 (stereo not drawn)	5%	-2%
CCN(CC)S(=O)(=O)c1ccc(C(=O)NCC(=O)NC2CC2)cc1	i	2%
COc1ccc(C(=O)Nc2ccc(NC(=O)C(C)C)nc2)cc1	4%	6%
COCC1CCCN(Cc2cn[nH]c2-c2cc3ccccc3o2)C1 (stereo not drawn)	-20%	-10%
CC(=O)C1=C(O)CC(c2ccccc2)CC1=NCCc1c(C)[nH]c2ccc(C)cc12 (stereo not drawn)	-16%	u
CCc1ccccc1NC(=O)c1ccc(CN2C(=O)CCn3nc(C)cc32)cc1	6%	6%
CN1CCN(c2ccccc2NC(=O)C(Cc2ccccc2)n2cccc2)CC1 (stereo not drawn)	-16%	-9%
COc1ccc(N(CC(=O)Nc2ccc(S(=O)(=O)N3CCOCC3)cc2)S(=O)(=O)c2ccc(F)cc2)cc1	-28%	-22%
CCCN(CC(=O)Nc1cc(Cl)ccc1Cl)C(=O)/C=C/c1ccco1	-2%	-12%
Cc1ccc(NC(C#N)c2ccccc2OCc2ccccc2)cc1 (stereo not drawn)	-11%	-1%
O=C(NCc1nnc2n1CCN(Cc1cccc(C(F)(F)F)c1)CC2)c1ccncc1	-10%	-7%
CC(NC(=O)CSCc1ccccc1Br)c1ccccc1 (stereo not drawn)	-3%	-7%
CN(CCO)c1ccc(-c2n[nH]c(=O)c3ccccc23)cc1[N+](=O)[O-]	-30%	-25%
O=C(OC1CCCCC1=O)c1cc(=O)c2ccccc2o1 (stereo not drawn)	1%	4%
Cc1cccc(NC(=O)C2CCN(S(=O)(=O)c3c(C)noc3/C=C/c3ccco3)CC2)c1C	-9%	-6%
O=C(NCCN1CCOCC1)c1ccc(CS(=O)(=O)Cc2ccccc2F)o1	x	-9%
Cc1cccc(NC(=O)CNC(=O)[C@H]2O[C@@H](n3ccc(N)nc3=O)[C@H](O)[C@@H]2O)c1C	8%	5%
CC1CCCCN1C(=O)Cn1c(=O)oc2cc(S(=O)(=O)N3CCCC3)ccc21 (stereo not drawn)	29%	-5%
O=C(Nc1nc(-c2ccc(F)c(F)c2)cs1)c1cnccn1	-14%	-15%
O=C(Nc1cccs1)Nc1ccccc1Cl	x	-26%
CCOc1ccccc1NC(=O)COc1coc(CN2CCCc3ccccc32)cc1=O	u	-22%
Cc1ccc2occ(CN3CC4CC(C3)c3cccc(=O)n3C4)c(=O)c2c1 (stereo not drawn)	-15%	-9%
COc1ccccc1OCCNC(=O)c1ccc(Br)cc1	-15%	-17%

A different layout for part of the listing above.
Compound | VACV mCherry inh | Vaccinia Venus
O=C(NCCN1CCOCC1)c1ccc(CS(=O)(=O)Cc2ccccc2F)o1 | x | -9%
Cc1cccc(NC(=O)CNC(=O)[C@H]2O[C@@H](n3ccc(N)nc3=O)[C@H](O)[C@@H]2O)c1C | 8% | 5%
CC1CCCCN1C(=O)Cn1c(=O)oc2cc(S(=O)(=O)N3CCCC3)ccc21 (stereo not drawn) | 29% | -5%

Structures listed so far that contain a nitro group on carbon:
SMILES	VACV mCherry inh	Vaccinia Venus
COC(=O)c1ccc(Cn2cc(C(F)(F)F)cc([N+](=O)[O-])c2=O)cc1	u	7%
CN(CCO)c1ccc(-c2n[nH]c(=O)c3ccccc23)cc1[N+](=O)[O-]	-30%	-25%

New compounds follow
SMILES	VACV mCherry inh	Vaccinia Venus
COc1ccc(CCNC(=O)CCn2c(=O)c3cccn3c3ccc(F)cc32)cc1OC	-14%	-7%
COc1cccc(-c2cc(N)nn2C(=O)Nc2ccc(Cl)cc2)c1	u	u
CCOC(=O)C1(CC2CCCCO2)CCN(Cc2cc(F)ccc2-n2cccn2)CC1 (stereo not drawn)	i	-6%
O=c1oc2ccc3ccccc3c2c2c1SC(C(F)(F)F)C2 (stereo not drawn)	x	9%
CN(C(=O)C1CCC(=O)N(C2CC2)C1)C1CCCCC1 (stereo not drawn)	i	-10%
O=C(c1ccc2c(=O)n(C3CCCC3)c(=S)[nH]c2c1)N1CCCCCC1	-29%	-27%
CCOc1ccc(OCc2ccc(C(=O)Nc3cccnc3)o2)cc1	-22%	-20%
Cc1ccccc1NC(=O)CSc1nc2scc(C)c2c(=O)[nH]1	0%	-4%
Cc1ccc(NC(=O)n2ncc3c(C)cccc32)c(C)c1	-5%&0%	-12%&-9%
COCCNc1nc(-c2ccccc2F)c2sc(-c3ccccc3)cc2n1	-14%	-17%
Cc1cc(C)n2ncc(C(=O)Nc3ccc(Cl)c(Cl)c3)c2n1	i	0%
Cc1ccc(S(=O)(=O)NCc2cn3c(C)csc3n2)cc1	x	-1%
CCN(C(=O)CSc1nc(C)cc(=O)[nH]1)C1CCCCC1	-18%	-15%
O=C(Nc1cc(C(F)(F)F)cc(C(F)(F)F)c1)c1cccn(Cc2ccccc2Cl)c1=O	-16%	-13%
CN1CCN(c2ccc(NC(=O)c3ccc([N+](=O)[O-])o3)cc2Cl)CC1	13µM*	u
O=C(Nc1sc2c(c1-c1nc3ccccc3[nH]1)CCCC2)C1CCCC1	-29%	-22%
Nc1[nH]n(-c2ccccc2)c(=O)c1N=Nc1ccc2ncsc2c1	u	-5%
CCC1CCCCN1c1nc2c(C=O)c(C)nn2c2ccccc12 (stereo not drawn)	i	-19%
OC1(c2ccc(Cl)cc2)CCN(Cc2cn[nH]c2-c2ccc(F)cc2)CC1	-11%	-3%
C[C@@H]1CN([C@@H](C)CO)S(=O)(=O)c2ccc(Br)cc2O[C@H]1CN(C)C(=O)c1ccc2c(c1)OCO2	-4%	-19%
O=c1[nH]c2cc3c(cc2cc1CN(CCc1ccccc1)C(=S)NCCCN1CCOCC1)OCCO3	-21%	-10%
CCc1ccc(NS(=O)(=O)c2ccc(C(=O)N(C)C)s2)cc1	-13%	-7%
COc1ccc(Cl)cc1NC(=O)CCCn1c(=O)c2cccn2c2cccnc21	u	-18%&-22%
COc1ccc2c(c1)Cc1c-2cc(Br)c(N)c1Br	i	-8%
COc1ccc(NC(=O)CCn2cccn2)cc1OC	13%	-4%
CNC(=S)N(Cc1cc2ccc(OC)cc2[nH]c1=O)CC1CCCO1 (stereo not drawn)	i	-2%
CC(=O)OC(C)(CCC(C)(OC(C)=O)C(C)=O)C(C)=O (stereo not drawn)	-18%	-6%
